ID4 binder: ID4 (human) binding. P47928. AID 624137. calls only. small molecule microarray, Flag-ID4 binding, fluorescence F/B. hit rate 1.2% among 31,000;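 active = spot signal over background at p below 0.07 in all four prints; compounds were printed on slides so no solution concentration is given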;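 also: a binder raises fluorescence above local background on the spot; about 2 pmol printed per array spot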
Target sequence (P47928 whole entry, looked up): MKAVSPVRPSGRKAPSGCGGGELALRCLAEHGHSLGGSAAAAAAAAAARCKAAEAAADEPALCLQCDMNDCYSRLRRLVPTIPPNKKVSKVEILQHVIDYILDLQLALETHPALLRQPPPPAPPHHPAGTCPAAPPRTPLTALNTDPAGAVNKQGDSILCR
Calls only; i = inactive; + = active, no number. A portion of the library; rates above refer to the full screens.

SMILES | ID4 binder
C[C@H]1CN([C@@H](C)CO)C(=O)c2cc(-c3ccc(F)cc3)cnc2O[C@H]1CN(C)Cc1ccc(F)cc1 | i
C[C@H]1CN([C@@H](C)CO)S(=O)(=O)c2ccc(C3=CCCC3)cc2O[C@H]1CN(C)C(=O)c1cnccn1 | i
CN(C)CC(=O)Nc1ccc2c(c1)[C@H]1C[C@H](CC(=O)NCc3cc(F)ccc3F)O[C@H](CO)[C@H]1O2 | i
COc1cccc(OC)c1C(=O)Nc1ccc(Cl)c(-c2nc3ncccc3o2)c1 | i
O=[N+]([O-])c1ccccc1CN1CCN(Cc2cccc(Oc3ccccc3)c2)CC1 | i
O=C(C[C@@H]1CC[C@@H](NC(=O)C2CC2)[C@@H](CO)O1)NC1CCC1 | i
C[C@H](CO)N1C[C@H](C)[C@@H](CN(C)Cc2ccc(F)cc2)Oc2ncc(-c3ccccc3F)cc2C1=O | i
CSc1ccccc1NC(=O)Cn1c(-c2nonc2N)nc2ccccc21 | i
Cc1cc2ncc(-c3ccccc3)nc2cc1C | i
O=C(C[C@@H]1C=C[C@@H](NC(=O)c2ccncc2)[C@@H](CO)O1)NCCc1ccncc1 | i
O=C(Nc1ccccc1C(=O)N1CCN(CCO)CC1)c1cccc([N+](=O)[O-])c1 | i
CC(C)N(C(=O)NC(=O)c1ccc(F)cc1F)C(C)C | i
CC(=O)Nc1ccc(NC(=O)CN(C2CCCCC2)S(C)(=O)=O)cc1 | i
C=CCOC(=O)[C@H]1[C@@H]2C(=O)O[C@@H](c3ccccc3)[C@@H](c3ccccc3)N2[C@@H](c2ccc(OCCOC(=O)[C@H]3C[C@H]4C(=O)N[C@@H](Cc5ccccc5)C(=O)N4[C@H]3c3ccc(O)cc3)cc2)[C@]12C(=O)Nc1ccccc12 | i
O=C(O)CCCC(=O)Nc1ccccc1Br | i
O=C(COc1ccc(C(=O)Nc2ccccc2Cl)cc1)Nc1cccc(C(F)(F)F)c1 | i
CCc1nc(SCC(=O)Nc2cc(C)on2)n[nH]1 | i
COCC#Cc1ccc2c(c1)O[C@H](CN(C)C(=O)CC1CC1)[C@H](C)CN([C@@H](C)CO)S2(=O)=O | i
O=C(NCC[C@@H]1CC[C@H](NC(=O)C2CCCCC2)[C@H](CO)O1)c1ccc(F)cc1 | i
Cc1ccc(C(=O)COc2cccc(NC(=O)c3ccc(Br)cc3)c2)cc1C | i
CC(=O)N(C)C[C@H]1Oc2ncc(-c3cccc(F)c3)cc2C(=O)N([C@@H](C)CO)C[C@H]1C | i
Cc1cccc(-c2nc3cc(NC(=O)COc4ccccc4[N+](=O)[O-])ccc3o2)c1 | i
COc1cc(NC(=O)CS(=O)(=O)c2ccccc2)cc(OC)c1OC | i
O=C(CSc1n[nH]c(-c2ccncc2)n1)Nc1sc2c(c1C(=O)Nc1ccccc1)CCCC2 | i
C[C@H](CO)N1C[C@H](C)[C@@H](CN(C)C)Oc2cc(-c3ccccc3)ccc2S1(=O)=O | i
SMILES | ID4 binder
CCNC(=S)N1CCN=C1Nc1nc(C)cc(C)n1 | i
COC(=O)N(C)C[C@H]1OCc2ccccc2-c2c(n(C)c3ccccc23)C(=O)N([C@H](C)CO)C[C@H]1C | i
C[C@H]1CN([C@@H](C)CO)C(=O)c2cc(C#Cc3ccccc3)cnc2O[C@@H]1CN(C)Cc1ccccn1 | i
C=C1CCC(C2CC(=O)OC2=O)C(=O)CCC2C1CC2(C)C (stereo not drawn) | i
O=C(CSc1nccc(=O)[nH]1)N1CCN(c2ccccc2)CC1 | i
CC1=CCC2C(=O)N(c3ccc(C4CCCCC4)cc3)C(=O)C2C1 (stereo not drawn) | i
C[C@@H]1CN([C@H](C)CO)C(=O)c2cc(/C=C/c3ccccc3)cnc2O[C@@H]1CN(C)Cc1ccncc1 | i
O=C(Nc1ccccc1)C1CC(=O)n2ncnc2N1 (stereo not drawn) | i
CCOc1cc(C2NC(=S)NC(C)=C2C(=O)Nc2ccccc2C(=O)OC)cc(Br)c1O (stereo not drawn) | i
C[C@H](NC(=O)C[C@H]1C=C[C@H](NC(=O)Cc2ccccn2)[C@H](CO)O1)c1ccccc1 | i
O=C(C[C@@H]1C=C[C@H](NC(=O)Nc2cc(F)ccc2F)[C@@H](CO)O1)Nc1ccc(-c2ccccc2)cc1 | i
CCNC(=O)C[C@@H]1CC[C@@H](NC(=O)C2CCC2)[C@H](CO)O1 | i
Cc1ccc(C)c(NC(=O)CC2C(=O)N(c3ccccc3)C(=S)N2Cc2ccco2)c1 (stereo not drawn) | i
Cc1ccc(-c2cnc3c(c2)C(=O)N([C@H](C)CO)C[C@H](C)[C@H](CN(C)C(=O)c2ccccc2)O3)cc1 | i
COc1ccccc1N(CC(=O)N(C)C)S(=O)(=O)c1ccc(C)cc1 | i
C=CCn1c(=O)c(C(=O)NCCCO)c(O)c2ccccc21 | i
COc1ccc(-c2nc(C#N)c(NCCN3CCOCC3)o2)cc1 | i
Cc1ccc2c(C)c(C(=O)Nc3sc4c(c3C(=O)NCc3ccco3)CCC4)oc2c1 | i
C[C@H]1CN([C@@H](C)CO)S(=O)(=O)c2ccc(C#Cc3ccccc3F)cc2O[C@@H]1CN(C)C | i
C[C@@H]1CN([C@H](C)CO)C(=O)c2cc(-c3cccc(F)c3)cnc2O[C@H]1CN(C)S(=O)(=O)c1cccc(F)c1 | i
CCC(=O)N[C@H]1C=C[C@H](CC(=O)NCC2CCCCC2)O[C@H]1CO | i
Cc1ccc(-c2csc3nnc(SCC(=O)c4ccc5c(c4)OCCO5)n23)cc1C | i
O=C(Cc1ccccc1[N+](=O)[O-])Nc1cc(Cl)ccc1Oc1ccccc1 | i
CC1(C)C(=O)C=C[C@@]2(C)C1CC(=O)[C@@]1(C)C3=CC(=O)O[C@@H](c4ccoc4)[C@]3(C)CCC12 (stereo partly drawn) | i
COc1ccccc1NC(=O)N(C)C[C@@H]1Oc2ncc(C#CCN(C)C)cc2C(=O)N([C@H](C)CO)C[C@@H]1C | i
SMILES | ID4 binder
CNC[C@@H]1Oc2cc(C#C[C@@H](C)O)ccc2S(=O)(=O)N([C@@H](C)CO)C[C@H]1C | i
COc1ccc(NC(=O)c2ccc(OCC(=O)Nc3cccc(C)c3C)cc2)cc1Cl | i
C[C@H]1CN([C@@H](C)CO)C(=O)c2cc(C#Cc3ccccn3)cnc2O[C@H]1CN(C)Cc1ccncc1 | i
C[C@@H]1CN([C@@H](C)CO)S(=O)(=O)c2ccc(C3=CCCC3)cc2O[C@H]1CN(C)C(=O)Nc1ccc2c(c1)OCO2 | +
O=c1c2c3c(sc2nc(SCc2nc(-c4cccs4)no2)n1-c1ccccc1)CCCC3 | i
COc1ccccc1NC(=O)N[C@@H]1C=C[C@@H](CC(=O)N[C@H](C)c2ccccc2)O[C@@H]1CO | i
C[C@H]1CN([C@@H](C)CO)S(=O)(=O)c2ccc(C3=CCCCC3)cc2O[C@@H]1CN(C)Cc1cncnc1 | i
Cc1ccc(F)cc1NC(=O)CSc1nnc(-c2ccccc2Cl)o1 | i
COc1ccc(C(=O)COc2cccc(NC(=O)c3ccccc3C)c2)cc1 | i
C[C@H](CO)N1C[C@H](C)[C@H](CN(C)CC2CCCC2)OCc2cn(nn2)CCCC1=O | i
CCCc1cc(=O)n2[nH]c(NCc3ccccc3OC)nc2n1 | i
CC(=O)Nc1ccc(C(=O)CSc2cc(C)c3ccccc3n2)cc1 | i
Cc1ccc(-c2cnc(-c3ccc(Br)cc3)o2)cc1 | i
COc1ccc(S(=O)(=O)N(CC(N)=O)C2CCCCC2)cc1Cl | i
CCCN(C)C[C@H]1Oc2cc(C#CC(C)C)ccc2S(=O)(=O)N([C@H](C)CO)C[C@H]1C | i
CN(C)c1ccc2c(c1)[C@H]1C[C@H](CC(=O)NCc3ccc(Cl)cc3)O[C@@H](CO)[C@H]1O2 | i
COc1ccc(NC(=O)COc2cc(C)ccc2C)cc1NC(=O)c1ccco1 | i
COC(=O)N(C)C[C@@H]1OCc2ccccc2-c2ccccc2C(=O)N([C@@H](C)CO)C[C@H]1C | i
CC(=O)c1cccc(NC(=O)C(CC(C)C)N2C(=O)c3ccccc3C2=O)c1 (stereo not drawn) | i
C[C@@H]1CN([C@@H](C)CO)C(=O)c2cc(-c3ccccc3F)cnc2O[C@@H]1CN(C)C(=O)CN(C)C | i
Cc1ccc(S(=O)(=O)N[C@@H]2CC[C@@H](CC(=O)N3CCC(Cc4ccccc4)CC3)O[C@H]2CO)cc1 | i
COC(=O)c1ccccc1NC(=O)CN(c1cccc(F)c1)S(C)(=O)=O | i
COc1ccccc1-c1nnc(SCC(=O)Nc2ccccc2C(F)(F)F)n1C | i
COc1ccccc1C(=O)N1CCN(c2ccc([N+](=O)[O-])c(NCc3ccco3)c2)CC1 | i
C[C@H](NC(=O)C[C@@H]1C=C[C@H](NC(=O)C2CCC2)[C@@H](CO)O1)c1ccccc1 | i

Ordered by molecular weight (smallest number first): some entries from above
SMILES | ID4 binder
CCCc1cc(=O)n2[nH]c(NCc3ccccc3OC)nc2n1 | i
CNC[C@@H]1Oc2cc(C#C[C@@H](C)O)ccc2S(=O)(=O)N([C@@H](C)CO)C[C@H]1C | i
CN(C)c1ccc2c(c1)[C@H]1C[C@H](CC(=O)NCc3ccc(Cl)cc3)O[C@@H](CO)[C@H]1O2 | i
COc1ccccc1C(=O)N1CCN(c2ccc([N+](=O)[O-])c(NCc3ccco3)c2)CC1 | i
COC(=O)N(C)C[C@@H]1OCc2ccccc2-c2ccccc2C(=O)N([C@@H](C)CO)C[C@H]1C | i

The list continues:
SMILES | ID4 binder
COCCNC(=O)C[C@@H]1C[C@@H]2c3cc(NC(=O)Nc4ccccc4)ccc3O[C@@H]2[C@@H](CO)O1 | i
C[C@@H]1CN([C@H](C)CO)C(=O)c2ccccc2-c2ccccc2CO[C@@H]1CN(C)Cc1cccnc1 | i
COc1ccc(S(=O)(=O)N[C@H]2C=C[C@@H](CC(=O)NCCc3ccccc3)O[C@@H]2CO)cc1 | i
C/C=C/c1cnc2c(c1)C(=O)N([C@H](C)CO)C[C@H](C)[C@H](CN(C)C(=O)c1ccc3c(c1)OCO3)O2 | i
COc1ccc([N+](=O)[O-])cc1NC(=O)c1ccccc1OCC(=O)Nc1cccc(C)c1 | i
COc1ccc(OC)c(NC(=O)COc2ccc(C(=O)Nc3ccc(C)cc3)cc2)c1 | i
C/C=C/c1cnc2c(c1)C(=O)N([C@H](C)CO)C[C@H](C)[C@@H](CN(C)Cc1ccc(F)cc1)O2 | i
COc1ccc(NC(=O)Cn2cnc3sc(-c4ccccc4)cc3c2=O)cc1 | i
COc1cc([N+](=O)[O-])ccc1NC(=O)CN1CCOCC1 | i
COc1ccc(-n2nc3cc(C)c(NC(=S)NC(=O)COc4cccc(C)c4)cc3n2)cc1Cl | i
C/C=C/c1cnc2c(c1)C(=O)N([C@H](C)CO)C[C@@H](C)[C@@H](CN(C)C(=O)Cc1ccccc1)O2 | i
C[C@@H]1CN([C@@H](C)CO)C(=O)c2ccccc2-c2ccccc2CO[C@@H]1CN(C)C(=O)CCN(C)C | i
O=C(O)CCn1nc(-c2ccc(F)cc2)ccc1=O | i
O=C(C[C@H]1C=C[C@@H](NC(=O)C2CC2)[C@H](CO)O1)NC1CCC1 | i
CCCC#Cc1ccc2c(c1)O[C@@H](CN(C)C(=O)Nc1ccccc1F)[C@H](C)CN([C@H](C)CO)S2(=O)=O | i
CC(C)Oc1ccccc1-c1nc(SCC(N)=O)n[nH]1 | i
Cc1ccc(-c2cnc3c(c2)C(=O)N([C@@H](C)CO)C[C@@H](C)[C@@H](CN(C)C(=O)CN(C)C)O3)cc1 | i
Nc1ncnc(NCCN2CCOCC2)c1[N+](=O)[O-] | i
N#CC(C#N)=C(N)/C(C#N)=C/c1cc(O)c(O)c(O)c1 | i
Cn1cnc(S(=O)(=O)N[C@@H]2C=C[C@H](CC(=O)NCC3CCCCC3)O[C@@H]2CO)c1 | i
C[C@@H]1CN([C@@H](C)CO)S(=O)(=O)c2ccc(/C=C/c3ccccc3)cc2O[C@H]1CN(C)C | i
CCn1c(SCC(=O)N2CCc3ccccc32)nnc1-c1c[nH]c2ccccc12 | i
O=C(CC1CC1)Nc1ccc2c(c1)[C@@H]1C[C@H](CC(=O)N3CCOCC3)O[C@@H](CO)[C@@H]1O2 | i
CO[C@@H]1CN(C)C(=O)c2cc(NC(=O)c3ccc(F)cc3)ccc2OC[C@@H](C)N(C)C[C@H]1C | i
COc1ccc(OC)c(NC(=O)Cn2cnc3sc(C)c(-c4ccccc4)c3c2=O)c1 | i
SMILES | ID4 binder
O=C(Cc1ccccc1)N[C@H]1CC[C@H](CC(=O)N2CCOCC2)O[C@@H]1CO | i
Cc1nc(SCC(=O)Nc2oc(-c3ccccc3)c(-c3ccccc3)c2C#N)nc2c1CCCC2 | i
COC(=O)N(C)C[C@@H]1OCc2ccccc2-c2ccccc2C(=O)N([C@@H](C)CO)C[C@@H]1C | i
COc1ccc2oc(-c3cccc(NC(=O)COc4ccc(Cl)cc4)c3)nc2c1 | i
COc1cc(OC)c(C2=NOC(C(=O)NCC3CCCO3)C2)cc1Cl (stereo not drawn) | i
CC(C)COC(=O)N(C)C[C@@H]1OCc2ccccc2-c2ccccc2C(=O)N([C@@H](C)CO)C[C@@H]1C | i
C[C@@H]1CN([C@H](C)CO)C(=O)c2ccccc2-c2ccccc2CO[C@@H]1CN(C)C(=O)[C@@H]1CCCN1C | i

In another format: entries from further up
C[C@@H]1CN([C@H](C)CO)C(=O)c2ccccc2-c2ccccc2CO[C@@H]1CN(C)C(=O)[C@@H]1CCCN1C
  ID4 binder: i

COC(=O)N(C)C[C@@H]1OCc2ccccc2-c2ccccc2C(=O)N([C@@H](C)CO)C[C@@H]1C
  ID4 binder: i

COc1ccc2oc(-c3cccc(NC(=O)COc4ccc(Cl)cc4)c3)nc2c1
  ID4 binder: i

CC(C)COC(=O)N(C)C[C@@H]1OCc2ccccc2-c2ccccc2C(=O)N([C@@H](C)CO)C[C@@H]1C
  ID4 binder: i

Compound activity: PubChem, Broad Institute
